Screens from PubChem.
FGF22 binding: FGF22 (human) thermal shift binding; hit rate 1.5% among 340,000; recombinant FGF22 thermal shift, SYPRO orange fluorescence; percent of sucrose octasulfate shift, DMSO zero; calls only at 9.99 µM;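 active = melting point raised past a set limit in the mean and every replicate; inconclusive = no clear call; three in four hits are not shown here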
Target sequence (Q9HCT0 whole entry, looked up): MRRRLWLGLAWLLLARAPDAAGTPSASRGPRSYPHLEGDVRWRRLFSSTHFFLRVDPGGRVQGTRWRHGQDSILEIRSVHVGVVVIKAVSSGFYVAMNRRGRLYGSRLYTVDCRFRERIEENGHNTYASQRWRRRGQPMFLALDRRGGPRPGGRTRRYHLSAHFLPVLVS
UCH37 inh: inhibitors of human deubiquitinating enzyme UCH37; purified proteasome/UCH37, Ub-AMC cleavage fluorescence; inhibition, % (no concentration beside the values); hit rate 0.33% among 330,000; AID 588478;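 active = mean of two replicates above 20%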;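 also: 0% = compound-free wells with enzyme and 100% = wells lacking proteasome; stock transfer was 100 nL into about 20 µL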
Target sequence (Q9Y5K5 whole entry, looked up): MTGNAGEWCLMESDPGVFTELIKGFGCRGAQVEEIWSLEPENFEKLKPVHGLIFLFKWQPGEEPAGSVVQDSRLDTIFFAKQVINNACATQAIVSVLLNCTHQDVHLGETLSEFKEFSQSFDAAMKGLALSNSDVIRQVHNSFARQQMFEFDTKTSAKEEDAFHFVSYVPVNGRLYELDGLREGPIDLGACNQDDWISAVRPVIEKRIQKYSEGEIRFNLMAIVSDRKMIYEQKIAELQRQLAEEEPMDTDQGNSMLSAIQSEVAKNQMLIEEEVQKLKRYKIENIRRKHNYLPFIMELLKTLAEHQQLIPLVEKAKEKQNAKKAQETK
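Reagent: Ub-AMC substrate; assay system: Proteasome-associated human UCH37 deubiquitinase; controls: no-proteasome and no-compound wells; read-out: % inhibition of Ub-AMC cleavage fluorescence; timing: 30 min preincubation with enzyme, 25 min cleavage at room temperature; signal: AMC fluorescence from Ub-AMC cleavage, excitation 355 nm, emission 460 nm; buffer or medium: Tris-HCl pH 7.4 plus ovalbumin, ATP-MgCl2, DTT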
ALR H2O2 inh: human ALR oxidase inhibition via reduced H2O2; P55789; purified ALR, DTT oxidation, H2O2 HRP-luminol luminescence; inhibition, % (concentration not given with the values); hit rate 3.8% among 290,000; AID 485317;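 active = mean and each replicate at 75% or more; inconclusive = only one of the two met; inactive = neither met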;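 also: stock transfer was 7.5 nL into about 7.5 µL; 0% = neutral wells and 100% = wells with inactivated enzyme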
HNF4A DNA FP: change in binding of human HNF4 alpha to DNA; hit rate 0.3% among 360,000; activity change, % at 10 µM; P41235; AID 1224865; HNF4a-FITC DNA binding, fluorescence polarization, 1 h; in the data active = activity change above about 30%, passing the limit was not always enough;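 also: controls were the assay level and a saturating level of protein; the project sought stronger binding though the title names inhibitors; some compounds called inactive have numbers as strong as hits; positive values seem to mean higher polarization but the record does not say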
E coli growth: inhibitors of Escherichia coli growth; AID 1053175; OD600 absorbance (concentration not given with the values); hit rate 0.21% among 330,000; OD600, 23 h; active compounds read low;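 active = OD600 absorbance below the run mean of sample wells minus 3.6 SD, in any replicate, cut at about 0.56 in these data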;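 also: stock transfer was 300 nL into about 60 µL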
B2AR ag: activates human beta-2 adrenergic receptor causing internalization. Am2.2-beta2AR cells, FAP receptor internalization, flow cytometry; reference of the scale not given here. response, % (test concentration not listed). hit rate 0.43% among 340,000;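 active = response above a set limit, near 3 SD of response in nonfluorescent compounds, cut at about 42% in these data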;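 also: stock transfer was 100 nL into about 11 µL; a reference agonist was the positive control; negative values mostly stem from fluorescent compounds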
Target sequence (P07550 whole entry, looked up): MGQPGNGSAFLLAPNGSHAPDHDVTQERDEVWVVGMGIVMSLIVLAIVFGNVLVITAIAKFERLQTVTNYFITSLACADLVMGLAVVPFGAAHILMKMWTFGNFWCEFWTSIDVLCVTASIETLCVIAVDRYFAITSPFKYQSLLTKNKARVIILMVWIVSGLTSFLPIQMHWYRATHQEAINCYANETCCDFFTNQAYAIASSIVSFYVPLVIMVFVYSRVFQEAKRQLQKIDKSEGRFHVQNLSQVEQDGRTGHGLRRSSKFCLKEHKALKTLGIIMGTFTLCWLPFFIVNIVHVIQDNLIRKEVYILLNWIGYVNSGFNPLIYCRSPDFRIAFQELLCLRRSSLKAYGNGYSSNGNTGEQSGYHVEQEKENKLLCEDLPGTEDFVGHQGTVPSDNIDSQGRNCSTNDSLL
LANA-H2A inh: blocks KSHV LANA binding to histone H2A/H2B; AID 2629; hit rate 0.6% among 320,000; cell-free LANA-H2A/H2B peptide, fluorescence polarization; inhibition, % (no concentration beside the values); in the data active = inhibition mostly above about 10%, no sharp cut-off; inactive = mostly below about 6.7%;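 also: stock transfer was 7.5 nL into about 10 µL; 0% = median of vehicle wells and 100% = median of positive control wells; one replicate is shown; the record names a cut of 25% in any replicate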
* marks the source's active call; other numbers are inactive results; i = inactive; ? = inconclusive; / = not tested or not shown.

Start of the data: the first 3 records, ahead of the listing:
SMILES	FGF22 binding	UCH37 inh	ALR H2O2 inh	HNF4A DNA FP	E coli growth	B2AR ag	LANA-H2A inh
C=CCn1c(COc2ccccc2)nc2ccccc21	i	1.7	44	1.9	0.69	-11	4.0
Cc1nc(S(=O)(=O)N(C)c2ccccc2)c(C#N)c(C)c1Cl	/	2.6	3	-2.4	0.72	-2	-2.0
O=C(NCCOc1ccc(Cl)cc1)C1CC(=O)N(c2ccc(F)cc2)C1 (centres undefined)	i	0.9	-2	-1.9	0.71	-2	0.6

The listing, from the start:
SMILES	FGF22 binding	UCH37 inh	ALR H2O2 inh	HNF4A DNA FP	E coli growth	B2AR ag	LANA-H2A inh
C=CCn1c(COc2ccccc2)nc2ccccc21	i	1.7	44	1.9	0.69	-11	4.0
Cc1nc(S(=O)(=O)N(C)c2ccccc2)c(C#N)c(C)c1Cl	/	2.6	3	-2.4	0.72	-2	-2.0
O=C(NCCOc1ccc(Cl)cc1)C1CC(=O)N(c2ccc(F)cc2)C1 (centres undefined)	i	0.9	-2	-1.9	0.71	-2	0.6
Clc1cccc(-c2ccc(C3Nc4cccc5cccc(c45)N3)o2)c1	/	/	-12	0.2	/	11	0.2
COc1cc2c(cc1OC)CN(c1ccc(F)cc1[N+](=O)[O-])CC2	i	-0.4	-22	0.3	0.7	-7	-3.7
O=C(NCc1ccc(OC(F)(F)F)cc1)C1CC2Cn3c(nc4ccccc43)C2N1c1ccccc1 (centres undefined)	i	1.6	/	-4.7	0.69	-11	-1.9
O=c1c2ccccc2ncn1-c1ccc(Cl)cc1Cl	i	4.8	-12	-1.7	0.67	1	-7.0
CNC(=O)N(O)C1N(C)C(=O)N(Cc2ccccc2)C1(C)C (centres undefined)	/	5.1	1	1.5	0.67	-2	14
COc1ccc(C2CC(c3ccccc3OC(C)=O)=NN2C(C)=O)cc1 (centres undefined)	i	3.0	3	-5.0	0.61	-10	-13
COc1ccc(C(=O)Nc2ccccn2)cc1S(=O)(=O)N1CCOCC1	i	1.4	0	-1.9	0.74	-7	-2.5
COc1ccc(NC(=O)/C=C/c2ccc(F)cc2)cn1	i	6.0	-1	1.0	0.67	1	2.1
C/C(=N\NC(=O)CCC(=O)Nc1ccccc1)c1cccs1	i	/	0	0.2	/	-5	-9.3
COC(=O)CC1Sc2ccccc2NC1=O (centres undefined)	/	1.2	/	3.2	0.64	7	1.8
CC(C)(C)c1ccc(C2C3=C(CCCC3=O)NC3=C2C(=O)c2ccccc23)cc1 (centres undefined)	i	2.5	1	-0.2	0.65	8	4.5
COCCN(C(=O)CNC(=O)c1ccco1)C(C(=O)NC1CCCCC1)c1cccc(OC)c1 (centres undefined)	/	1.3	-2	-2.6	0.76	2	-2.6
Cc1ccc(OCC(=O)Nc2ccc(S(=O)(=O)N3CCCCC3)cc2)c([N+](=O)[O-])n1	i	1.9	-8	1.8	0.67	-6	1.6
Cc1cc(NS(=O)(=O)c2ccc(NC(=O)CCCC(=O)O)cc2)nc(C)n1	/	-1.7	7	-2.2	0.73	-1	6.2
COc1ccc(Cl)cc1NS(=O)(=O)c1cccc2cccnc12	i	3.8	-3	-1.9	0.65	9	-4.4
O=C(C[n+]1ccc(-c2cc(C(=O)Nc3cccc(C(F)(F)F)c3)c3ccccc3n2)cc1)c1cccc([N+](=O)[O-])c1	i	8.8	0	-1.2	0.72	1	-0.4
Cc1cccc(N2CCN(Cc3nc(-c4cccc(Cl)c4)oc3C)CC2)n1	i	-1.8	-9	4.0	0.66	1	-2.5
CN(Cc1ccccc1)CC(O)COc1ccc(CNCc2cc3ccccc3s2)cc1 (centres undefined)	i	4.7	2	2.8	0.61	10	-2.6
OC(C#Cc1ccccn1)c1cccs1 (centres undefined)	/	-2.9	?	-32	0.65	63*	3.6
COc1ccc(OCCCC(=O)Nc2cc(S(=O)(=O)N3CCCCC3)ccc2OC)cc1	i	0.8	-6	5.1	0.7	0	3.8
O=C(OCc1nnc(-c2ccccc2)o1)c1ccc(-n2cnnn2)cc1	i	1.8	14	1.2	0.6	7	14
C[C@H](NC(=O)c1nc[nH]c1C(=O)N[C@@H](C)C(=O)OC(C)(C)C)C(=O)OC(C)(C)C	i	-1.0	-8	0.2	/	4	-0.3
CCN(Cc1cnn(C)c1)C(=O)c1cc(COc2ccc3c(c2)CCCC3)on1	i	0.8	18	2.4	0.69	1	-3.4
O=C(Nc1ccccc1)N1CCCN(c2c(Cl)cncc2Cl)CC1	i	1.7	-5	3.2	0.68	6	5.5
Cc1cc(C(=O)N2CC(C)CC(C)C2)n(-c2ccccc2)n1 (centres undefined)	i	-1.0	-23	0.8	0.72	-12	-1.4
COc1cc(/C=C/C(=O)OCC(=O)NCCc2ccc(F)cc2)ccc1OC(F)F	i	-3.7	-17	2.6	0.7	-20	-7.0
O=C(Nc1ccccc1)c1ccc(F)c(S(=O)(=O)N2CCOCC2)c1	/	4.7	-9	-1.9	0.67	9	0.0
Cc1cc(C)nc(OC(C(=O)O)C(OCC(C)C)(c2ccccc2)c2ccccc2)n1 (centres undefined)	i	-0.3	40	2.5	0.72	1	-3.8
COCCCNC(=O)CS(=O)(=O)Cc1nc(-c2cccc(OC)c2)oc1C	/	2.1	?	2.3	0.68	1	-9.8
Oc1ccccc1C(=S)N1CCCCCC1	/	1.5	-2	-3.9	0.7	4	0.0
CCN(CCCn1c(=S)[nH]c2ncccc2c1=O)c1ccccc1	/	2.3	34	1.0	0.69	1	3.5
CC(C)Oc1ccc(Br)cc1/C=N\NC(N)=S	/	/	1	1.6	/	5	-5.8
CC(C(=O)Nc1ccccc1)N(C)CCOc1ccc(Br)cc1 (centres undefined)	/	5.5	0	0.0	0.71	6	-2.1
Cc1ccc(Cn2cccc2C2=NC(C)CO2)cc1 (centres undefined)	/	0.8	/	1.7	0.74	1	-5.3
O=C(Nc1cccnc1Cl)c1cc(-c2ccc(Br)cc2)on1	i	2.4	-4	2.0	0.72	18	-11
COc1cc(CCC(=O)Nc2cccc(S(=O)(=O)N(C)C)c2)cc(OC)c1OC	/	0.6	-1	0.2	0.68	4	0.3
CCC(=O)Nc1ccc(OC)cc1OC	/	2.8	-25	-0.8	0.67	-3	0.4
Cc1ccc(CNC(=O)CN(C)S(=O)(=O)c2cccc3cccnc23)cc1	i	3.4	-111	-1.5	0.73	4	-4.8
Clc1cccc(Cl)c1CSc1nnc([C@@H]2CCCN2)o1	i	2.5	-15	-2.0	0.69	-4	-2.0
COc1ccc(NC(=O)CN(C)CC(=O)NCC(=O)Nc2ccc(F)cc2)cc1	i	0.8	-7	0.4	0.71	-9	6.9
O=C(CSc1nnc(CNC(=O)c2ccco2)o1)Nc1ccccc1C(F)(F)F	i	5.0	4	-0.4	0.69	-4	5.5
O=C1NC(=S)NC(=O)C1Nc1ccc(Cl)cc1	i	9.4	/	-2.1	0.68	12	/
CCN(CC)S(=O)(=O)c1cccc(NC(=O)CN(C)Cc2cccc(OC)c2)c1	i	1.1	-21	2.1	0.67	2	-2.7
O=C(O)CCC(=O)NCc1c(Cl)cccc1Sc1ccc(Cl)cc1	i	6.8	-5	-0.7	0.67	1	-0.9
CCCOC1CCCN(C(=O)c2ccc3oc(C(C)C)nc3c2)C1 (centres undefined)	i	5.0	-6	2.1	0.71	-9	0.0
O=C(NCCCN1CCCC1=O)c1cc(COc2ccc(F)cc2F)on1	i	3.3	-19	-1.4	0.7	-4	-1.4
CCc1noc(C)c1C(=O)NNC(=O)c1ccccc1Cl	i	6.4	/	2.4	0.67	0	-2.0
O=C1C(=O)N(CCS(=O)(=O)c2ccccc2)c2ccc(F)cc21	i	3.9	-7	-0.9	0.64	-3	2.8
CC1(C)CC(CC(=O)O)(c2ccccc2)CCO1 (centres undefined)	/	2.2	31	-1.2	0.75	-2	-7.3
O=C1CCCN1c1cccc(Br)c1	/	4.0	/	2.7	0.68	-2	1.3
CN(CC(=O)NCCc1ccc(F)cc1)Cc1ccc(Br)cc1	i	-0.3	/	0.7	0.61	-2	6.5
Cc1csc(=O)n1CCC(=O)OCC(=O)c1c(N)n(C)c(=O)n(C)c1=O	i	0.4	-7	0.1	0.68	0	2.4
CCn1c(=O)cc(OCC(=O)N2CCN(c3cccc(C(F)(F)F)c3)CC2)c2ccccc21	/	1.9	/	0.4	0.64	6	1.6
CC(=O)Nc1cccc(NC(=O)c2cccc3cccnc23)c1	i	5.0	-8	3.2	0.71	-8	0.4
CCCC[n+]1ccc(-c2nc3ccc([N+](=O)[O-])cc3[nH]2)cc1	/	12	0	-1.4	0.66	-2	1.5
O=C(O)c1ccccc1NC(=O)c1cc2ccccc2oc1=O	i	12	1	0.2	0.66	13	-1.5
CCCCn1c(=O)c2c(nc3n2CCCN3Cc2ccccc2)n(C)c1=O	i	2.2	/	2.3	0.67	6	/

More structures follow.
SMILES	FGF22 binding	UCH37 inh	ALR H2O2 inh	HNF4A DNA FP	E coli growth	B2AR ag	LANA-H2A inh
O=C(Cn1ccc(NC(=O)OCc2ccccc2)nc1=O)NCCCc1ccccc1	i	-2.0	3	4.2	0.62	3	2.5
COc1ccc(C2c3cc(OC)c(OC)cc3CCN2C(=O)c2cccc([N+](=O)[O-])c2)cc1OC (centres undefined)	i	3.9	-6	1.7	0.66	8	-1.7
COc1ccc(Nc2cc(Nc3cc(OC)c(OC)c(OC)c3)ncn2)cc1	i	3.5	-32	7.5	0.73	12	0.4
COc1ccc(CSC(=N)N)cc1[N+](=O)[O-]	/	2.2	/	-0.9	0.73	3	1.9
CCn1c2ccccc2c2cnc(N=CN(C)C)c(C#N)c21	/	-41	/	-3.5	0.71	-4	/
CCOC(=O)c1ccc(N2C(=O)CC(N3CCC(O)(c4ccc(Cl)cc4)CC3)C2=O)cc1 (centres undefined)	/	0.9	-10	-2.0	0.69	-6	-0.5
O=C(/C=C/c1ccco1)NC(=S)Nc1cccc(C(=O)O)c1	i	7.3	96*	-3.0	0.68	-5	-9.0
N#Cc1sc2nc(C3CC3)cc(-c3ccccc3)c2c1N	i	-93	4	-0.1	0.65	-12	3.4
N#C/C(=C/c1ccc([N+](=O)[O-])cc1)C(N)=O	i	/	1	0.3	/	9	-3.9
C/C(=N\NC(=O)CC#N)c1cc2ccccc2oc1=O	/	/	45	-3.9	/	-6	2.2
Cc1cccc(NC(=O)Nc2ccc([N+](=O)[O-])cc2)n1	i	2.8	-3	1.1	0.66	6	-7.5
CN(Cc1ccccc1)C(=O)c1ccc(S(=O)(=O)N(C)c2ccccc2)cc1	i	-2.0	3	1.0	0.71	0	-3.8
Cc1ccc(S(=O)(=O)C(C#N)c2nc3ccccc3nc2N2CCN(C)CC2)cc1 (centres undefined)	/	0.9	5	-0.5	0.7	4	2.2
COc1cccc(CNC(=O)CN2C(=O)COc3ccc(S(=O)(=O)N4CCCCC4)cc32)c1	i	0.6	-1	0.1	0.64	4	-3.3
CCOC(=O)c1cccc(NC(=O)CSc2nnnn2CC)c1	/	3.6	-3	1.4	0.73	6	0.0
COc1ccc(CC(=O)NNC(=O)c2ccc(Br)o2)cc1	i	0.9	-7	-5.0	0.7	7	-2.5
CCc1nc(SCC(=O)O)c(C#N)c2c1CCCC2	i	0.9	6	6.0	0.66	6	-1.1
Cn1c(SCC(=O)Nc2ccc3c(c2)OCO3)nnc1C(F)(F)F	i	0.3	43	3.7	0.7	-7	-5.8
O=C(NCc1ccccc1)c1onc(CSc2ccc(Cl)cc2)c1C(=O)NCc1ccccc1	i	-0.9	-11	-9.9	0.73	1	-2.2
Cc1ccc(NC(=O)CSc2nnc(-c3cccs3)o2)cc1S(=O)(=O)N1CCCCC1	i	-0.8	4	-0.6	0.69	4	4.3

2 records picked at random from those above:
SMILES	FGF22 binding	UCH37 inh	ALR H2O2 inh	HNF4A DNA FP	E coli growth	B2AR ag	LANA-H2A inh
CCOC(=O)c1cccc(NC(=O)CSc2nnnn2CC)c1	/	3.6	-3	1.4	0.73	6	0.0
COc1ccc(CC(=O)NNC(=O)c2ccc(Br)o2)cc1	i	0.9	-7	-5.0	0.7	7	-2.5

Not all compounds are listed; rates above refer to the full screens.
